From PubChem BioAssay
E coli growth = E. coli growth inhibition, primary screen, OD600; OD600 absorbance (concentration not given with the values); 330,000 tested, 0.21% active; Escherichia coli growth, 23 h; active compounds read low;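 active = OD600 absorbance below the run mean of sample wells minus 3.6 SD, in any replicate, cut at about 0.56 in these data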;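 also: stock transfer was 300 nL into about 60 µL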
rRNA inh HTS = reduced GFP signal of wild-type E. coli, primary screen, bacterial rRNA inhibitor project, GFP/RFP fluorescence, OD600, single point; GFP signal change (wild-type ribosome), % (test concentration not listed); AID 720706, 2013; 350,000 tested, 1.6% active; E. coli WT GFP vs humanized-ribosome RFP mutants, 24 h; active compounds read low; DMSO median 0, no signal -100;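 active = significant combined selectivity score with lowered wild-type GFP, culture density cut under 30%, mutant RFP and density less affected; inactive = any of these conditions unmet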; also: one replicate is shown; some compounds called inactive have numbers as strong as hits
Vif TR-FRET = inhibitors of Vif binding to APOBEC3G peptide, primary screen, biochemical, TR-FRET, GST-Vif 1-94, biotin-A3G peptide, dose response retest (AID 1117319); Virion infectivity factor (Human immunodeficiency virus type 1 group M subtype B (isolate …; TR-FRET GST-Vif / biotin-A3G peptide binding; higher % means a stronger effect; test concentration not given here; strong numbers were not always called active; inhibition, %; hits with a dose series show IC50 in µM; 260,000 tested, 0.57% active;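 active = above the screen mean plus three standard deviations and confirmed in dose response; inconclusive = results disagree or hit not tested in dose response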;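 also: Vif residues 1-94 fused to GST binding biotinylated APOBEC3G peptide 110-148; 0% = full assay without inhibitor and 100% = GST in place of GST-Vif; retest series ran down from 100 µM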
HNF4A DNA FP = change in binding of human HNF4A to DNA, primary screen, biochemical, fluorescence polarization, FITC-DNA; activity change, % at 10 µM; 1 h; 360,000 tested, 0.3% active; in the data active = activity change above about 30%, passing the limit was not always enough;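 also: controls were the assay level and a saturating level of protein; the project sought stronger binding though the title names inhibitors; some compounds called inactive have numbers as strong as hits; positive values seem to mean higher polarization but the record does not say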
Target sequence (P41235 whole entry, looked up): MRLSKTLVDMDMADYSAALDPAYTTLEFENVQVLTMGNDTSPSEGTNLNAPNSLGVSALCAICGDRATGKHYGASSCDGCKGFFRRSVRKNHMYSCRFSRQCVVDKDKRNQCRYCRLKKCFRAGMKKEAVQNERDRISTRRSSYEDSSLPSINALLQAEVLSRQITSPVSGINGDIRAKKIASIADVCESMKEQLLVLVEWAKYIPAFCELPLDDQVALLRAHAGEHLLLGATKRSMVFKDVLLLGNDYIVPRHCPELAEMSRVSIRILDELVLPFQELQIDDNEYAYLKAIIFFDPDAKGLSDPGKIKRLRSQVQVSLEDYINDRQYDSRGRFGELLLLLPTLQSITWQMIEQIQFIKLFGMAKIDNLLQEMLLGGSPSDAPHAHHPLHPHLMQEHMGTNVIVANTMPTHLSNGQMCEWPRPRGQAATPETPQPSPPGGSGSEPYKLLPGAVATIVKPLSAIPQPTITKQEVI
ALR H2O2 inh = inhibitors of human ALR sulfhydryl oxidase, primary screen, biochemical, H2O2 detection, HRP-luminol luminescence, single point; purified ALR, DTT oxidation; inhibition, % (no concentration beside the values); 290,000 tested, 3.8% active;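 active = mean and each replicate at 75% or more; inconclusive = only one of the two met; inactive = neither met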;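 also: stock transfer was 7.5 nL into about 7.5 µL; 0% = neutral wells and 100% = wells with inactivated enzyme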
MLL AF4-AF9 inh = inhibitors of AF4 peptide binding to AF9, primary screen, biochemical, AlphaScreen, biotin-AF4 peptide, FLAG-AF9, single point | Protein AF-9 (Homo sapiens), P42568 | inhibition, % at 10 µM | 350,000 tested, 0.47% active;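 active = every replicate reaching a set inhibition limit, whatever the replicate mean, cut at about 25% in these data; inconclusive = mean inhibition reaches that limit but some replicates miss it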;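 also: 0% = plate neutral control median and 100% = total signal loss; the record names both 10 and 1 µM as test concentration; the first replicate is given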
Target sequence (P42568 whole entry, looked up): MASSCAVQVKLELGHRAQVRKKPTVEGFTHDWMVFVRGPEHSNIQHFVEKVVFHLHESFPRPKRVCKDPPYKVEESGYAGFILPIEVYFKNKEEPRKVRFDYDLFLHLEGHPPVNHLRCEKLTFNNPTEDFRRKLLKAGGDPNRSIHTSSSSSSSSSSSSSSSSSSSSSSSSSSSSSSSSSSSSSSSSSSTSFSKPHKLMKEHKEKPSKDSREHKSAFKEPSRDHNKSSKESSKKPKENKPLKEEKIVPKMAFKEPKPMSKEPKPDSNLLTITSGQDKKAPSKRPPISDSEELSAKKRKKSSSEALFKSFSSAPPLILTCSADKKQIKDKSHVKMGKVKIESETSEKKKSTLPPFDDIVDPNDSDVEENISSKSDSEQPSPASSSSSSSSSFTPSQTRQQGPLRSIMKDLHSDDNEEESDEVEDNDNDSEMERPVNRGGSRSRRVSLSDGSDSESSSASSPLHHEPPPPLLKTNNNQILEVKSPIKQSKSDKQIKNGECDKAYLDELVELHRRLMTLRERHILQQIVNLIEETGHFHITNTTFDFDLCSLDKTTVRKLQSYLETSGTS
FGF22 binding = binders of human FGF22 protein, primary screen, FGF22 synaptogenesis inhibitor project, biophysical, thermal shift, single point. recombinant FGF22 thermal shift, SYPRO orange fluorescence; percent of sucrose octasulfate shift, DMSO zero. calls only at 9.99 µM. 340,000 tested, 1.5% active;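 active = melting point raised past a set limit in the mean and every replicate; inconclusive = no clear call; three in four hits are not shown here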
rRNA inh HTS OD600 = also measured in rRNA inh HTS; calls as there; OD600 change, %; measured here: OD600 growth;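 optical density of the mix in the first replicate; 0 = DMSO median and -100 = no signal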
rRNA inh HTS RFP = recorded beside rRNA inh HTS, whose call it bears; RFP signal change, %; measured here: RFP humanized mutant strains;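 first replicate; 0 = DMSO median and -100 = no signal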
* = called active by the depositor. Not all compounds are listed. The share of hits here may be higher or lower than overall.

`CC1(C)CC(=O)C2=C(C1)c1c(ccc3ccccc13)NC2c1ccc(OCC(=O)O)cc1` (centres undefined) gave E coli growth 0.68, rRNA inh HTS 1, Vif TR-FRET 18%, HNF4A DNA FP -2.7, ALR H2O2 inh -1, MLL AF4-AF9 inh -2.0, FGF22 binding inactive, rRNA inh HTS OD600 -2 and rRNA inh HTS RFP 4.3.
For COC(=O)CNC(=O)c1ccc(F)cc1 the results were E coli growth 0.71, rRNA inh HTS 14, Vif TR-FRET -2%, HNF4A DNA FP -1.3, ALR H2O2 inh -43, MLL AF4-AF9 inh -1.6, FGF22 binding inactive, rRNA inh HTS OD600 21 and rRNA inh HTS RFP 1.2.
Screening COc1ccc(C(=O)CSc2nnc(COc3ccc(C#N)cc3)n2-c2ccccc2)cc1 returned E coli growth 0.73, Vif TR-FRET -6% and HNF4A DNA FP 0.5.
For Cc1cccc2c1-c1sc(C(=O)N3CCCCC3)cc1CO2 the results were E coli growth 0.72, rRNA inh HTS -55, Vif TR-FRET 2%, HNF4A DNA FP -4.8, ALR H2O2 inh -6, MLL AF4-AF9 inh 6.2, FGF22 binding inactive, rRNA inh HTS OD600 -78 and rRNA inh HTS RFP -17.
Cc1ccc(Cl)cc1NC(=S)N(CCCN1CCOCC1)Cc1ccco1 was read as E coli growth 0.65, rRNA inh HTS -9, Vif TR-FRET -1%, HNF4A DNA FP -4.2, ALR H2O2 inh -30, MLL AF4-AF9 inh 2.0, FGF22 binding inactive, rRNA inh HTS OD600 -9 and rRNA inh HTS RFP 2.2.
For Nc1nc2n(n1)C(c1cccc(Cl)c1)CC(c1ccc(F)cc1)N2 (centres undefined) the results were E coli growth 0.7, rRNA inh HTS 1, Vif TR-FRET 1%, HNF4A DNA FP 1.9, ALR H2O2 inh -13, MLL AF4-AF9 inh -0.5, FGF22 binding inactive, rRNA inh HTS OD600 10 and rRNA inh HTS RFP 1.9.
`C[C@H]1CN([C@@H](C)CO)C(=O)c2cc(C#CCc3ccccc3)cnc2O[C@H]1CN(C)C(=O)Cc1cccnc1` gave rRNA inh HTS 2, MLL AF4-AF9 inh -22, FGF22 binding inactive, rRNA inh HTS OD600 12 and rRNA inh HTS RFP -2.5.
CC1C=NC(S(=O)(=O)N2CC[C@H]3[C@@H](CO)N(C)c4ccc(C#Cc5ccccc5)cc4[C@H]32)=N1 (some centres undefined) was read as rRNA inh HTS -5, MLL AF4-AF9 inh 9.1, FGF22 binding inactive, rRNA inh HTS OD600 7 and rRNA inh HTS RFP 5.7.
CC1=C(C(=O)N2CCCCCC2)CC(CC(=O)NCCCN(C)C)C(=O)N1CCCN1CCCC1=O (centres undefined) was read as HNF4A DNA FP 0.8, MLL AF4-AF9 inh -0.3 and FGF22 binding inactive.
Screening COc1ccc(NC(=O)C2CCCN(C(=O)Nc3ccc(F)cc3)C2)cc1OC (centres undefined) returned E coli growth 0.66, rRNA inh HTS 4, HNF4A DNA FP -3.4, ALR H2O2 inh -3, MLL AF4-AF9 inh -3.1, FGF22 binding inactive, rRNA inh HTS OD600 11 and rRNA inh HTS RFP 0.9.
Cc1ccc(NC(=S)N2CCN(S(C)(=O)=O)CC2)cc1 was read as E coli growth 0.64, rRNA inh HTS 23, Vif TR-FRET -10%, HNF4A DNA FP 2.3, ALR H2O2 inh -31, MLL AF4-AF9 inh -2.2, FGF22 binding inactive, rRNA inh HTS OD600 19 and rRNA inh HTS RFP 2.0.
`COc1ccc(NC(=O)Nc2ccc3c(c2)[C@H]2C[C@@H](CC(=O)N4CCN(C)CC4)O[C@H](CO)[C@H]2O3)cc1` gave rRNA inh HTS 4, MLL AF4-AF9 inh 12, FGF22 binding inactive, rRNA inh HTS OD600 13 and rRNA inh HTS RFP 0.4.

Gathered by group: the compounds so far with nitrogen in an aromatic ring (3)
Screening COc1ccc(C(=O)CSc2nnc(COc3ccc(C#N)cc3)n2-c2ccccc2)cc1 returned E coli growth 0.73, Vif TR-FRET -6% and HNF4A DNA FP 0.5.
For Nc1nc2n(n1)C(c1cccc(Cl)c1)CC(c1ccc(F)cc1)N2 (centres undefined) the results were E coli growth 0.7, rRNA inh HTS 1, Vif TR-FRET 1%, HNF4A DNA FP 1.9, ALR H2O2 inh -13, MLL AF4-AF9 inh -0.5, FGF22 binding inactive, rRNA inh HTS OD600 10 and rRNA inh HTS RFP 1.9.
`C[C@H]1CN([C@@H](C)CO)C(=O)c2cc(C#CCc3ccccc3)cnc2O[C@H]1CN(C)C(=O)Cc1cccnc1` gave rRNA inh HTS 2, MLL AF4-AF9 inh -22, FGF22 binding inactive, rRNA inh HTS OD600 12 and rRNA inh HTS RFP -2.5.

Other structures.
For CNC(=O)c1ccc(Nc2nnc(-c3ccc(C(N)=O)cc3)c3ccccc23)cc1 the results were E coli growth 0.65, rRNA inh HTS 6, Vif TR-FRET 2%, HNF4A DNA FP -1.3, ALR H2O2 inh -16, MLL AF4-AF9 inh -5.3, FGF22 binding inactive, rRNA inh HTS OD600 14 and rRNA inh HTS RFP -0.6.
Screening COc1cc(CNS(=O)(=O)c2ccc3c(c2)CC(C)N3C(C)=O)cc(OC)c1OC (centres undefined) returned E coli growth 0.69, rRNA inh HTS 2, HNF4A DNA FP -3.7, ALR H2O2 inh -1, MLL AF4-AF9 inh -2.1, FGF22 binding inactive, rRNA inh HTS OD600 4 and rRNA inh HTS RFP -2.0.
N#Cc1cccc(-c2ccc3c(c2)[C@@H]2[C@@H](CCN2S(=O)(=O)c2ccc(F)cc2)[C@@H](CO)N3)c1 was read as rRNA inh HTS -19, MLL AF4-AF9 inh -0.7, FGF22 binding inactive, rRNA inh HTS OD600 -19 and rRNA inh HTS RFP -3.4.
`CCCNC(=O)N1CC2(CCN(C)CC2)c2c([nH]c3cc(OC)ccc23)[C@H]1CO` gave rRNA inh HTS 5, MLL AF4-AF9 inh -1.1, FGF22 binding inactive, rRNA inh HTS OD600 6 and rRNA inh HTS RFP -2.4.
Cc1cccc(NC(=O)CSCC(=O)N(C)Cc2ccc3c(c2)OCCO3)c1 was read as E coli growth 0.67, rRNA inh HTS -7, Vif TR-FRET 4%, HNF4A DNA FP -1.5, MLL AF4-AF9 inh -6.4, FGF22 binding inactive, rRNA inh HTS OD600 -9 and rRNA inh HTS RFP 2.8.
`CCC(=O)N1CCc2cc(S(=O)(=O)NCCC(=O)NC3CCCc4ccccc43)ccc21` (centres undefined) gave E coli growth 0.69, Vif TR-FRET >100µM* and HNF4A DNA FP 1.2.
Cc1ccc(CNc2ccc3c(c2)ncn3C(C)C)cc1 was read as E coli growth 0.6, rRNA inh HTS -14, Vif TR-FRET 15%, HNF4A DNA FP -0.7, ALR H2O2 inh 93*, MLL AF4-AF9 inh 9.7, FGF22 binding inactive, rRNA inh HTS OD600 -19 and rRNA inh HTS RFP -4.6.
Screening CN(C)c1cccc2c(S(=O)(=O)NCC3CCN(C(=O)C(=O)c4cccs4)CC3)cccc12 returned rRNA inh HTS -4, MLL AF4-AF9 inh -2.8, FGF22 binding inactive, rRNA inh HTS OD600 -8 and rRNA inh HTS RFP 4.4.
Screening Cc1nc2cc(Cl)c(Cl)cc2nc1C returned E coli growth 0.75, Vif TR-FRET inconclusive and HNF4A DNA FP -0.7.
`Cc1ccc(CN2C(=O)C(C)Oc3ccc(C)cc32)cc1` (centres undefined) gave rRNA inh HTS -1, HNF4A DNA FP 0.2, MLL AF4-AF9 inh -1.1, FGF22 binding inactive, rRNA inh HTS OD600 -5 and rRNA inh HTS RFP -0.3.
Cc1ccccc1Cn1nc(C)c(NC(=O)c2cc(-c3ccco3)on2)c1C was read as E coli growth 0.69, rRNA inh HTS -9, Vif TR-FRET 1%, HNF4A DNA FP 4.1, ALR H2O2 inh -2, MLL AF4-AF9 inh 1.1, FGF22 binding inactive, rRNA inh HTS OD600 -9 and rRNA inh HTS RFP 6.7.
CC(C)CCn1nnnc1C(c1ccc(F)cc1)N1CCC(C(N)=O)CC1 (centres undefined) was read as E coli growth 0.75, Vif TR-FRET 15%, HNF4A DNA FP 2.5 and ALR H2O2 inh 5.
CCC(CC)N1CCN(Cc2nc3ccc([N+](=O)[O-])cc3c(=O)n2-c2ccccc2F)CC1 was read as E coli growth 0.7, rRNA inh HTS 2, HNF4A DNA FP 2.2, ALR H2O2 inh -48, MLL AF4-AF9 inh 0.1, FGF22 binding inactive, rRNA inh HTS OD600 11 and rRNA inh HTS RFP 2.2.
O=C1CC(NS(=O)(=O)c2ccccc2)CN1c1ccc2c(c1)OCCO2 (centres undefined) was read as E coli growth 0.68, rRNA inh HTS 0, Vif TR-FRET 1%, HNF4A DNA FP 0.3, ALR H2O2 inh 0, MLL AF4-AF9 inh -14, FGF22 binding inactive, rRNA inh HTS OD600 1 and rRNA inh HTS RFP -1.8.
For C[C@H](O)C#Cc1cnc2c(c1)C(=O)N([C@H](C)CO)C[C@H](C)[C@@H](CN(C)C(=O)Nc1ccc(C(F)(F)F)cc1)O2 the results were rRNA inh HTS 0, MLL AF4-AF9 inh -0.3, FGF22 binding inactive, rRNA inh HTS OD600 -8 and rRNA inh HTS RFP -2.9.
`Cc1ccccc1CN1CCN(CC(=O)NCc2ccccn2)C1=O` gave E coli growth 0.71, rRNA inh HTS 9, Vif TR-FRET -5%, HNF4A DNA FP -1.4, ALR H2O2 inh -4, MLL AF4-AF9 inh -6.9, FGF22 binding inactive, rRNA inh HTS OD600 11 and rRNA inh HTS RFP -1.6.
For COc1ccc(/C=C/c2nc3ccccc3n2Cc2ccccc2OC)cc1 the results were E coli growth 0.67, rRNA inh HTS -26*, Vif TR-FRET -2%, HNF4A DNA FP 1.9, ALR H2O2 inh -1, MLL AF4-AF9 inh 2.3, FGF22 binding inactive, rRNA inh HTS OD600 -9.0* and rRNA inh HTS RFP 5.1*.
CCCCCC(=O)Nc1cccc(C2=NOC3(C2)C[C@@H](C(N)=O)N(C(=O)c2ccc(OC)cc2)C3)c1 (some centres undefined) was read as Vif TR-FRET 23%, HNF4A DNA FP -0.1 and ALR H2O2 inh -5.
C[C@H]1CN([C@@H](C)CO)S(=O)(=O)c2ccc(/C=C/c3ccccc3)cc2O[C@H]1CN(C)C(=O)NC1CCCC1 was read as rRNA inh HTS -6, MLL AF4-AF9 inh 6.0, FGF22 binding inactive, rRNA inh HTS OD600 -6 and rRNA inh HTS RFP 3.6.
For Cc1ccc(NC(=O)CCNS(=O)(=O)c2ccc3c(c2)CCC(=O)N3)c(Br)c1 the results were E coli growth 0.71, rRNA inh HTS 4, HNF4A DNA FP 0.8, ALR H2O2 inh -4, MLL AF4-AF9 inh -3.0, FGF22 binding inactive, rRNA inh HTS OD600 -2 and rRNA inh HTS RFP -6.0.
For C[C@@H]1CCCCO[C@H](CN(C)C(=O)C2CCCCC2)[C@H](C)CN([C@@H](C)CO)C(=O)c2cc(NC(=O)Nc3ccc4c(c3)OCO4)ccc2O1 the results were rRNA inh HTS -3, MLL AF4-AF9 inh 4.1, FGF22 binding inactive, rRNA inh HTS OD600 -2 and rRNA inh HTS RFP 1.8.
Screening O=C(Cn1nnc2ccccc2c1=O)NC1CCCc2ccccc21 (centres undefined) returned E coli growth 0.71, Vif TR-FRET 2%, HNF4A DNA FP 1.2 and ALR H2O2 inh -2.
Screening CCOC(=O)N1CCC(NC(=O)CCN2C(=O)C3C4C=CC(C4)C3C2=O)CC1 (centres undefined) returned E coli growth 0.77, Vif TR-FRET 15%, HNF4A DNA FP -2.0 and ALR H2O2 inh 5.
